# Biofilm kill mix – mixture kills Candida albicans biofilm cells; C. albicans biofilm persisters + clotrimazole, fluorescence viability; primary screen in compound mixtures of four per well; inhibition, % at 7.6 µM; 120,000 compounds, 0.02% hits; AID 1242;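 active = inhibition above 30.3% in the primary screen of four-compound pools, then above 30% when the compound was retested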;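 note: compounds exposed to preformed 24 h biofilms for 48 h; the number belongs to the whole pool; some results filed as inactive read as strong as hits; inactives centre near 12; 0% = biofilm with clotrimazole alone and 100% = kill control; retested singly at about 60 µM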
#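 Assay system: C. albicans biofilms / Medium: RPMI/MOPS medium, pH 7.0 / Schedule: biofilm formation 24 h, compound exposure 48 h, 37 °C / Measured by: Alamar Blue fluorescence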
# Numbers without * were called inactive. A portion of the library; count on the stated rates, not on these rows.
SMILES,Biofilm kill mix
CC(C)NC(=O)/C(C#N)=C\c1ccc(N(C)C)o1,16
O=C(Cc1ccc([N+](=O)[O-])cc1)N1N=C(c2ccncc2)CC1(O)C(F)(F)F (centres undefined),11
O=C(Nc1nnc(-c2ccccn2)o1)c1cccc(Br)c1,11
COC(=O)c1cccc(-n2c(C)cc(C=O)c2C)c1C,13
COc1ccc(-c2cc(C(F)F)n3ncc(C(=O)n4ccnc4C)c3n2)cc1,11
C/C(=N/NC(=O)CN1CCN(Cc2ccccc2Cl)CC1)c1ccncc1,14
CC1CCN(S(=O)(=O)c2cccc(C(N)=O)c2)CC1,-4
CCOC(=O)c1c(-c2ccc(C)cc2)csc1NC(=O)CCSc1nnc2ccccn12,4
CCCCN(C)CCOc1ccccc1OCC,12
CCn1c(CC(=O)Nc2ccccc2)n[nH]c1=S,22
CNCCC(Oc1ccc(C(F)(F)F)cc1)c1ccccc1 (centres undefined),5
CC(/C=N/NC(=O)CSc1nc2ccccc2n1C)=C\c1ccco1,16
COc1ccc(Cl)cc1NC(=O)COC(=O)C(CC(C)C)N1C(=O)C2CC=CCC2C1=O (centres undefined),22
COC(=O)c1c(-c2snnc2C)n[nH]c1C,11
Cc1cc(C)cc(N(C(=O)CCC(=O)Nc2ccccn2)C(C(=O)NC(C)C)c2ccc(O)cc2)c1 (centres undefined),10
COC(=O)N/N=C/c1cccnc1,18
COc1ccc(C(=O)N/N=C(\C)Cn2cnc([N+](=O)[O-])n2)cc1,11
COc1cc2ncnc(NCc3ccco3)c2cc1OC,5
COc1ccc2c(CC(=O)Nc3nc(C)cs3)coc2c1,26
O=C(NCC1CCCO1)C(c1ccncc1)N(Cc1cccs1)C(=O)Cn1nnc(-c2ccc(F)cc2)n1 (centres undefined),-11
COc1cc(C(C(=O)Nc2c(C)cccc2C)N(C)C(=O)c2ccc(-n3cnnn3)cc2)ccc1O (centres undefined),4
C[N+]1(CCC(=O)c2ccccc2)CCCCC1,-1
CCOP(=O)(OCC)/C(=N/OC(=O)c1ccc(OC)cc1)C(N)=O,16
CN1CCN(C(=O)c2cn(-c3ccccc3)nc2-c2cccs2)CC1,16
COc1ccc(C(=O)Nc2ccc(S(=O)(=O)Nc3cc(C)nc(C)n3)cc2)cc1,16

# New compounds follow
SMILES,Biofilm kill mix
COC(=O)c1ccc(C(=O)OC)c(NC(=O)C2CC2)c1,11
O=C(NCCCN1CCOCC1)c1cc(Cl)ccc1[N+](=O)[O-],15
COc1ccccc1OCCn1cc(/C=N/NC(N)=S)c2ccccc21,15
COc1cc(NC(=O)COC(C)=O)c(C)cc1[N+](=O)[O-],7
COCCCNC(=O)C(CC(N)=O)NC(=O)OCc1ccccc1 (centres undefined),24
CCOC(=O)C1(Cc2ccc(OC)cc2)CCN(C(=O)c2cncs2)CC1,13
Cc1ccc(Cn2nnc3c(=O)n(CC(=O)NCC4CCCO4)cnc32)cc1 (centres undefined),11
CCSC1=N/C(=C\C=C2/Oc3ccccc3N2CC)C(=O)S1,16
CCOC(=O)/C(=N\Nc1ccc(Cl)cc1)Sc1nnc(-c2ccc(OC)cc2)n1C,16
O=C(N/N=C/C=C/c1ccccc1[N+](=O)[O-])c1cccnc1,10
CCCOc1ccc(/C=N/NC(=O)C(=O)Nc2ccccn2)cc1,18
Cc1cccc(OCC(=O)O/N=C(\N)Cc2ccc([N+](=O)[O-])cc2)c1,10
CCCCCn1c(CNC(=O)c2cccs2)nc2ccccc21,20
CC(C)Cn1c(=O)c(-[n+]2ccccc2)c([O-])c2ccccc21,26
CCCCC(=O)N/N=C/c1sccc1C,19
CNC(=O)c1[nH]cnc1C(=O)N[C@@H](CCCCNC(=O)OC(C)(C)C)C(=O)OC(C)(C)C,18
NC(=O)C1CCN(CC(=O)N2N=CCC2c2ccccc2)CC1 (centres undefined),25
CC(CN1C(C)CCCC1C)OC(=O)c1ccc(Cl)cc1 (centres undefined),9
O=C(c1cccc([N+](=O)[O-])c1)N1CCCN(C(=O)c2cccc([N+](=O)[O-])c2)CC1,7
O=C(NC1CC1)C1=C[C@@H](c2ccc(Br)cc2)C[C@@H](OCCCCO)O1,19
COc1ccc(-c2nnc(NC(=O)Cc3ccccc3)s2)c(OC)c1,18
Cc1ccc(CC(=O)O/N=C(\N)Cc2ccc([N+](=O)[O-])cc2)cc1,13
CN1CCc2c(c3c(n2C)CCN(C)[C@@H]3c2cccnc2)[C@H]1c1cccnc1,5
Cc1cc(NS(=O)(=O)c2ccc(Nc3nc(-c4ccc(C)c(C)c4)cs3)cc2)no1,14
CCC1=NN2C(=N)/C(=C\c3cccn3-c3ccc(C)c(C)c3)C(=O)N=C2S1,15

# (next part)
SMILES,Biofilm kill mix
N#Cc1ccc(OCC(=O)OCC(=O)NCCC2=CCCCC2)cc1,10
COc1ccccc1OCCOCCOc1c(C)cc(C)cc1Br,16
COc1cccc(C(c2nnnn2Cc2ccco2)N2CCN(Cc3ccccc3)CC2)c1OC (centres undefined),17
CCOCC(=O)Nc1ccc(C(=O)Nc2ccccc2Cl)cc1,10
CCOC(=O)c1c(C)n(C)c2ccc(OC)c([N+](=O)[O-])c12,21
CCOC(=O)c1sc(NC(=O)CC)nc1C,19
COc1cc(/C=C(\C#N)C(=O)N2CCOCC2)ccc1OCc1ccccc1,15
O=C(N/N=C\c1cccc(Cl)c1)c1n[nH]c2c1CCCC2,4
CC1(C)Cc2c(sc(NC(=O)COc3cccc4ccccc34)c2C#N)C(C)(C)N1,20
Cc1cccc(C(C)C)c1NC(=O)C1CN(S(=O)(=O)c2ccccc2)CCN1S(=O)(=O)c1ccccc1 (centres undefined),14
Cn1c(=O)c2c(nc(N3CCc4ccccc4C3)n2C)n(C)c1=O,3
COc1ccc(NC(=S)N2CCN(Cc3ccco3)CC2)c(OC)c1,15
O=C(O)CC1S/C(=N\N=C/c2ccccc2O)N(c2ccc(O)cc2)C1=O (centres undefined),16
COc1cc(N=C2C(=O)N3CCCc4cccc2c43)cc(OC)c1,14
CC(C(=O)O)N1C(=O)/C(=C/c2cccn2C)SC1=S (centres undefined),10
CCOC(=O)C1(CC2CCCCO2)CCN(Cc2ccccc2-c2ccco2)CC1 (centres undefined),16
CC(C)CCN1CCN(Cc2nc3ccccc3s2)CC1CCO (centres undefined),13
COc1ccc(C(C)=O)cc1CSc1nnc(Nc2ccccc2C)s1,2
CCC(=O)c1c[nH]c(C(=O)NCc2cccs2)c1,21
CCCn1c(C)cc(C(=O)COc2ccc(C)nc2[N+](=O)[O-])c1C,16
CCc1cccc(N(CC(=O)NCc2ccc(F)cc2)C(=O)c2csnn2)c1,2
COc1ccc(N2CCN(CC(O)COC(C)(C)C)CC2)cc1 (centres undefined),1
COc1ccccc1/C=N/NC(=O)COCC(=O)N/N=C/c1ccccc1OC,13
O=C1c2cccc([N+](=O)[O-])c2C(=O)N1c1cccnc1,22
COc1ccc(S(=O)(=O)N2CCN(C(=O)NC3CCCCC3)CC2)cc1,10

# The final 5 compounds of the part above come first, to join the parts.
SMILES,Biofilm kill mix
CCc1cccc(N(CC(=O)NCc2ccc(F)cc2)C(=O)c2csnn2)c1,2
COc1ccc(N2CCN(CC(O)COC(C)(C)C)CC2)cc1 (centres undefined),1
COc1ccccc1/C=N/NC(=O)COCC(=O)N/N=C/c1ccccc1OC,13
O=C1c2cccc([N+](=O)[O-])c2C(=O)N1c1cccnc1,22
COc1ccc(S(=O)(=O)N2CCN(C(=O)NC3CCCCC3)CC2)cc1,10
O=C1CCC/C(=N/Nc2ccc(Cl)cc2)C1,21
COC(=O)c1cc(=O)[nH]c(SCc2cccc(C)c2)n1,16
O=C(COC(=O)c1ccc[nH]c1=O)Nc1cc(S(=O)(=O)N2CCCCC2)ccc1Cl,7
COc1ccccc1CN1C[C@@H]2C[C@@H](c3cccc(O)c3)N3CCC[C@@]23C1=O,-10
Cc1nc(C(=O)NNC(=O)Nc2ccccc2)cs1,15
NC1=NC(=Nc2cccc(Cl)c2)c2ccccc21,13
COC(=O)c1cc(NC(=S)N2CCN(C(=O)C3CCCO3)CC2)cc(C(=O)OC)c1 (centres undefined),9
CCCc1cc(=O)[nH]c(Nc2ccc(Cl)cc2)n1,14
CC12CN(NC(=O)c3ccc(Cl)cc3)C3(C#N)CC1CCC23C (centres undefined),28
COc1ccccc1N1CCN(C(=O)/C=C/c2ccco2)CC1,11
Cc1ccc(N(C(=O)Cn2nnc(-c3ccc(F)cc3)n2)C(C(=O)NC(C)(C)C)c2ccncc2)cc1 (centres undefined),15
COc1ccc(/C(N)=N/OC(=O)CCCc2ccccc2)cc1OC,6
CCC(=O)c1ccc(O)c(OC)c1,28
CC(=O)C1=C(O)C(=O)N(c2cccc(C(=O)O)c2)C1c1ccccc1F (centres undefined),1
COc1ccc(NC(=O)[C@@H](NC(=O)c2ccccc2F)C(C)C)cc1S(=O)(=O)N1CCOCC1,7
O=C(COc1ccc(S(=O)(=O)N2CCCC2)cc1)NCC1CCCO1 (centres undefined),23
O=C(Cc1cccc2ccccc12)Nc1ccc(N2CCOCC2)cc1,8
CCc1cc(-c2n[nH]c(C)c2-c2nc3ccccc3n2C)c(O)cc1O,13
Cc1ccc(NC(=O)Nc2ccnc(-c3cccnc3)n2)cc1,7
CC(=O)c1cc2c(cc1N/C(=N/S(=O)(=O)c1ccccc1)c1ccc(Cl)cc1)OCO2,4
Cc1ccc(S(=O)(=O)N2CCOCC2)cc1C(=O)NNC(=O)c1ccoc1C,-1
Cc1ccc([N+](=O)[O-])c(OCCCNCC(C)O)c1 (centres undefined),17
CN(C)CCN(C(=O)c1cccc(Cl)c1)c1nc2c(Cl)cccc2s1,11
COC(=O)C(O)(CC(=O)Nc1ccccc1OC)C(F)(F)F (centres undefined),15
CN(C(=O)c1cccs1)c1ccc(OCC(=O)N2CCC(C(N)=O)CC2)cc1,10

# Next section, overlapping the part above by three compounds.
SMILES,Biofilm kill mix
CN(C)CCN(C(=O)c1cccc(Cl)c1)c1nc2c(Cl)cccc2s1,11
COC(=O)C(O)(CC(=O)Nc1ccccc1OC)C(F)(F)F (centres undefined),15
CN(C(=O)c1cccs1)c1ccc(OCC(=O)N2CCC(C(N)=O)CC2)cc1,10
COc1cccc(OCCOCCOc2ccc(C)cc2[N+](=O)[O-])c1,19
Brc1ccc(CSc2nnc3ccccn23)cc1,3
COc1ccc(-c2nn(C)c(=O)c3ccccc23)cc1CNC(=O)C1CCCCC1,6
O=c1nccc(SCc2ccc(Cl)cc2Cl)[nH]1,20
Cc1nccn1S(=O)(=O)c1cc([N+](=O)[O-])ccc1Cl,9
Cc1ccc(C(=O)NCCCN2CCOCC2)o1,8
C[C@@H]1C(=O)O[C@@H]2CC34[C@H]5C[C@@H](C(C)(C)C)C36[C@H](OC(=O)[C@@H]6O)OC4(C(=O)O5)[C@@]12O (some centres undefined),12
CC(=O)c1c(C)[nH]c(C(=O)Nc2c(C)n(C)n(-c3ccccc3)c2=O)c1C,6
CCN(CC)S(=O)(=O)c1ccc(C(=O)NCCCN=C2NS(=O)(=O)c3ccccc32)cc1,14
C=CCNC(=O)c1c(C(F)(F)F)nn(C)c1Cl,14
Cc1cc2cc(CNC(=S)Nc3ccc(OC(F)F)cc3)ccc2[nH]1,5
CC(C)(C)C(=O)NC(=O)Nc1ccccc1C(F)(F)F,14
COCCNC(=O)CSc1nc2cc(OC)c(OC)cc2c(=O)n1CCc1ccc(S(N)(=O)=O)cc1,5
CCN(CC)CCCN=C(N)N,21
Cc1cccc(C)c1NCc1nnc(SCC(=O)Nc2nc(-c3ccccc3)cs2)n1-c1ccccc1,6
Cc1cc(-c2ccccc2)nc(N(C)C)c1S(C)(=O)=O,2
O=C(O)c1ccccc1Sc1ncnc2sccc12,15
NC(=O)C1CCN(C(=O)c2ccc3c(=O)n(Cc4ccco4)c(SCC(=O)c4ccccc4)nc3c2)CC1,14
Cc1ccc(CSc2ncnc3ccccc23)cc1,14
S=C(NCc1ccc(Cl)cc1)Nc1ccccc1,18
COc1ccc(/C=N/NC(=O)c2ccc(F)cc2)cc1CN1CCc2cc(OC)c(OC)cc2C1C (centres undefined),1
CCc1ccc(C(=O)NC(=S)Nc2ccc(N3CCOCC3)cc2)cc1,15
Cn1c(SCC(=O)CC(=O)Nc2ccccc2)nnc1-c1ccc(O)cc1,8
Cc1c(NC(=S)N/N=C/c2ccc([N+](=O)[O-])cc2O)c(=O)n(-c2ccccc2)n1C,28
CCCSc1nc(O)c(C(c2ccc(OC)c(O)c2)c2c(O)nc(SCCC)n(C)c2=O)c(=O)n1C,4
c1ccc(C(c2ccccc2)N2CCN(Cc3nc(-c4cnccn4)no3)CC2)cc1,27
CCCCCc1cccnc1,5
CCOC(=O)N1CCN(C(=O)Cc2c(C(=O)O)n(C)c3ccccc23)CC1,2
CCOC(=O)c1[nH]c2ccccc2c1NC(C)=O,16

# 6 entries picked at random from the list so far, as already listed:
SMILES,Biofilm kill mix
Cc1c(NC(=S)N/N=C/c2ccc([N+](=O)[O-])cc2O)c(=O)n(-c2ccccc2)n1C,28
CCc1ccc(C(=O)NC(=S)Nc2ccc(N3CCOCC3)cc2)cc1,15
CCN(CC)S(=O)(=O)c1ccc(C(=O)NCCCN=C2NS(=O)(=O)c3ccccc32)cc1,14
Brc1ccc(CSc2nnc3ccccn23)cc1,3
CCOC(=O)N1CCN(C(=O)Cc2c(C(=O)O)n(C)c3ccccc23)CC1,2
c1ccc(C(c2ccccc2)N2CCN(Cc3nc(-c4cnccn4)no3)CC2)cc1,27

# 3 entries out of the list, sorted by SMILES length, falling:
SMILES,Biofilm kill mix
CCCSc1nc(O)c(C(c2ccc(OC)c(O)c2)c2c(O)nc(SCCC)n(C)c2=O)c(=O)n1C,4
CCOC(=O)/C(=N\Nc1ccc(Cl)cc1)Sc1nnc(-c2ccc(OC)cc2)n1C,16
CCOC(=O)c1c(C)n(C)c2ccc(OC)c([N+](=O)[O-])c12,21

# Assay outcomes as filed in PubChem.
